Mtb betalactam = beta-lactam sensitization of Mtb H37Rv; M. tuberculosis H37Rv growth with meropenem, percent inhibition; hits of this screen are not shown here; inhibition, % at 25 µM; actives 0.27% (n = 330,000);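 active means about 74% or more and at least 40 points above the plate without the antibiotic, then above 30% in a dose series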;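 further: growth measured after seven days incubation then overnight dye step; 0% = bacteria only wells and 100% = bacteria with antibiotic; twin plates without the antibiotic show which effects depend on it; some results filed as inactive read as strong as hits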
Mtb growth = M. tuberculosis H37Rv growth inhibitors, H37Rv strain (AID 1626). M. tuberculosis H37Rv growth inhibition; higher % means a stronger effect. actives 0.95% (n = 220,000). inhibition, % at 10 µM, or IC50 in µM where a hit was titrated;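 active means confirmed in a dose series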;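 further: bacteria incubated seven days before Alamar blue readout; 0% = bacteria only wells and 100% = bacteria with antibiotic wells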
Active calls of the source: *; nt = no result given. An excerpt; the hit share may differ from the screen's.

(1) CCN1CC(CCN2CCOCC2)C(c2ccccc2)(c2ccccc2)C1=O (stereo not given)
(2) O=C(OC1C[C@@H]2CC3C[C@H](C1)N2CC3=O)c1c[nH]c2ccccc12 (stereo not given in full)
(3) O=c1c(O[C@@H]2O[C@H](CO)C(O)C2O)c(-c2ccc(O)c(O)c2)oc2cc(O)cc(O)c12 (stereo not given in full)
(4) O=C1c2ccccc2C(=O)c2c(O)c(O)cc(O)c21
(5) CN1CCN(CCCN2c3ccccc3Sc3ccc(S(=O)(=O)N(C)C)cc32)CC1
(6) Nc1cc(=O)[nH]c(N)n1
(7) O=C1c2c(O)cccc2C(C2OC(CO)[C@@H](O)[C@H](O)[C@H]2O)c2cc(CO)cc(O)c21 (stereo not given in full)
(8) CCOC(=O)Nc1ccc(NCc2ccc(F)cc2)nc1N
(9) CC1CCc2c(N3CCC(O)CC3)c(F)cc3c(=O)c(C(=O)O)cn1c23 (stereo not given)
(10) CCC(Cc1c(I)cc(I)c(N)c1I)C(=O)O (stereo not given)
(11) CC[C@]12CCCN3CCc4c(n(c5ccccc45)[C@@](O)(C(=O)OC)C1)[C@@H]32

| entry no. | 1 | 2 | 3 | 4 | 5 | 6 | 7 | 8 | 9 | 10 | 11 |
| --- | --- | --- | --- | --- | --- | --- | --- | --- | --- | --- | --- |
| Mtb growth | -9% | -5% | nt | nt | nt | nt | nt | nt | nt | nt | nt |
| Mtb betalactam | nt | nt | 5 | 11 | -4 | -6 | 7 | 2 | -6 | -6 | 2 |

No new results follow: an excerpt of the list.
(3) O=c1c(O[C@@H]2O[C@H](CO)C(O)C2O)c(-c2ccc(O)c(O)c2)oc2cc(O)cc(O)c12 (stereo not given in full)
(4) O=C1c2ccccc2C(=O)c2c(O)c(O)cc(O)c21
(5) CN1CCN(CCCN2c3ccccc3Sc3ccc(S(=O)(=O)N(C)C)cc32)CC1
(6) Nc1cc(=O)[nH]c(N)n1

| entry no. | 3 | 4 | 5 | 6 |
| --- | --- | --- | --- | --- |
| Mtb growth | nt | nt | nt | nt |
| Mtb betalactam | 5 | 11 | -4 | -6 |
